Mtb bLac sens: beta-lactam sensitization of Mtb H37Rv, H37Rv; AID 434955, 2010; inhibition, % at 25 µM; 330,000 tested, 0.27% active; M. tuberculosis H37Rv growth with meropenem, percent inhibition; hits of this screen are not shown here;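 active = about 74% or more and at least 40 points above the plate without the antibiotic, then above 30% in a dose series; inconclusive = first-round hits that could not be retested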;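 note: growth measured after seven days incubation then overnight dye step; 0% = bacteria only wells and 100% = bacteria with antibiotic; twin plates without the antibiotic show which effects depend on it; some results filed as inactive read as strong as hits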
Arbovirus anti: antivirals against arbovirus infection, primary screen, cell-based, full library, 10K replicate subset; arbovirus infection cell-based antiviral screen; inhibition, % at 10 µM; 200,000 tested, 0.37% active;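 active = inhibition from about 30%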;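 note: bluetongue infection of BSR cells; cell survival read as ATP light after 72 h; 0% = infected wells without compound and 100% = uninfected wells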
Mtb H37Rv: M. tuberculosis H37Rv growth inhibitors, H37Rv strain (AID 1626); M. tuberculosis H37Rv growth inhibition; higher % means a stronger effect; 220,000 tested, 0.95% active; inhibition, % at 10 µM, or IC50 in µM where a hit was titrated;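 active = confirmed in a dose series; inconclusive = inhibition above 80% but not taken into the dose series; inactive = below 80% or under 30% at every dose of the series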;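 note: bacteria incubated seven days before Alamar blue readout; 0% = bacteria only wells and 100% = bacteria with antibiotic wells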
RecA intein inh: Mtb RecA intein splicing inhibitors, primary screen, biochemical, fluorescence, HTS; cell-free RecA intein splicing; inhibition, %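 (about 9 µM by stock and volumes)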; Protein RecA (Mycobacterium tuberculosis (strain ATCC 25618 / H37Rv)), P9WHJ3; AID 2221, 2009; 290,000 tested, 0.75% active; in the data active = inhibition above about 30%; inconclusive = no clear call, values can overlap the other calls;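 note: 0% = vehicle wells and 100% = reference inhibitor control wells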
Target sequence (P9WHJ3 whole entry, looked up): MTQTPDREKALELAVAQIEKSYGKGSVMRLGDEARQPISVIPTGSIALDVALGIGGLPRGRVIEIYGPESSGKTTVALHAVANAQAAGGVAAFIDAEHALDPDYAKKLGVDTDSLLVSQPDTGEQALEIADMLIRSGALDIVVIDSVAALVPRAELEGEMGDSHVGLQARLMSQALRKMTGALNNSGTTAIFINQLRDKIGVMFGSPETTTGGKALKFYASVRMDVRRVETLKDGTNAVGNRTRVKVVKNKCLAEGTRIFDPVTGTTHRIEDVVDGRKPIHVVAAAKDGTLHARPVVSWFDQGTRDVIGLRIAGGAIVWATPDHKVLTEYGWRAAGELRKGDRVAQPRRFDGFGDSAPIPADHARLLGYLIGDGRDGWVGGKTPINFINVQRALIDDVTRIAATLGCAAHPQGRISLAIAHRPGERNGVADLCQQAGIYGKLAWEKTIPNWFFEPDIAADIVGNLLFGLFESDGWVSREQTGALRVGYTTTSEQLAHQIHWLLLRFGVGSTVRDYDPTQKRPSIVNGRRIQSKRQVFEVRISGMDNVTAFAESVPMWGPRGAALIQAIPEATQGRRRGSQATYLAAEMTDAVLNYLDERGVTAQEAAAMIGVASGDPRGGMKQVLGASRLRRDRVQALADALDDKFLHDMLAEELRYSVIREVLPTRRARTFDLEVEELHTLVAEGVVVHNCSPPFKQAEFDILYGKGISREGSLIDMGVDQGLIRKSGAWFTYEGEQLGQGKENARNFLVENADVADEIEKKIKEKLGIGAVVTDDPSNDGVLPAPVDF
YopH PTP inh: YopH tyrosine phosphatase inhibitors, primary screen, biochemical, fluorescence Ex485/Em525; YopH tyrosine phosphatase [Yersinia enterocolitica]; inhibition, %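 (about 10 µM by stock and volumes)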; 140,000 tested, 0.16% active; AID 898, 2007;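 active = inhibition of 50% or more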;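 note: controls were vehicle for no effect and minimum signal wells for full effect; inactives centre near -20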
Arbovirus anti repeat: also measured in Arbovirus anti; calls as there; inhibition, %; measured here: 10K subset replicate screen; many hits read low in the repeat;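 first of two repeat runs on a subset; 0% = infected and 100% = uninfected wells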
* hit, by the source's call; u = inconclusive; x = no result given; & = joins results of further samples. These rows are one share of the data (hit frequency here may not be typical).

SMILES	Mtb bLac sens	Arbovirus anti	Mtb H37Rv	RecA intein inh	YopH PTP inh	others
COCCN(C(=O)COC(=O)c1nc(Cl)ccc1Cl)c1c(N)n(Cc2ccccc2)c(=O)[nH]c1=O	-4	x	x	3.5	x
CCOC(=O)N1CC(=O)Nc2ccc(Br)cc2C1c1ccccc1 (centres undefined)	-6	x	2%	4.8	x
C=C(C)c1cccc(C(C)(C)NC(=O)N2CCN(C)CC2)c1	0	8	5%	2.6	-31
O=S(=O)(NCCOCCNS(=O)(=O)c1ccccc1)c1ccccc1	-2	3	x	-1.2	-39	Arbovirus anti repeat=1
O=C(CN1C(=O)/C(=C\c2cccc(Cl)c2)Oc2ccccc21)N1CCN(c2ccccn2)CC1	2	-12	-5%	-45	x
Cc1c(C(=O)NCCc2ccc(Cl)cc2)sc2nc3n(c(=O)c12)CCC3	-1	x	x	-3.0	x
COc1ccc(NC(=O)[C@@H](NC(=O)c2ccccc2)C(C)C)cc1S(=O)(=O)N1CCCCC1	-8	11	21%	-6.9	-2
O=C(O)c1ccc(N(Cc2ccccc2)S(=O)(=O)c2ccccc2)cc1	-1&2	x	x	0.5&-0.9	x
Cc1cccc(OCCn2cnc(Cl)c2Cl)c1	0	x	2%	3.3	x
O=c1[nH]c(=S)[nH]c2nc(-c3cccs3)cc(C(F)(F)F)c12	-9	x	x	0.8	x
COc1ccc2sc(N(CCCN(C)C)C(=O)c3ccc(S(=O)(=O)N4CCCc5ccccc54)cc3)nc2c1	74	x	x	3.1	x
O=[N+]([O-])c1ccccc1CCc1cnc(Cl)s1	3	x	x	-2.6	x
COCCCN1C(=O)CC(C(=O)OC)=C1C	-7	4	-2%	-0.7	x
COc1ccc(C)cc1N(CC(=O)N/N=C/c1ccc2c(c1)OCO2)S(C)(=O)=O	0	2	0%	-1.2	x
C=C(C)c1cccc(C(C)(C)NC(=O)N2CCN(c3ccc(OC)cc3)CC2)c1	1	-6	-8%	-1.9	-19
O=C(COC(=O)/C=C/c1ccco1)Nc1ccc(F)cc1Cl	3	2	2%	-0.5	x
Cc1ccc(C)c(S(=O)(=O)N2CCCC2CNC(=O)C(=O)NCc2ccco2)c1 (centres undefined)	-1	x	x	-1.6	x
O=[N+]([O-])c1ccc(-c2ccc(/C=N/Nc3nc(NCc4ccccc4)nc(N4CCOCC4)n3)o2)cc1	94	-32	u	-15	x
Cn1nc(-c2ccccc2)c(C#N)c1Sc1cccc(Cl)c1	14	-11	0%	6.0	-11
COc1cc(CNC(=O)CCn2nc(C)c3c(C)n(-c4ccccc4)nc3c2=O)cc(OC)c1OC	4	x	x	-2.4	x
CC1CCN(C(=O)CCCC(=O)O)CC1	-5	4	-6%	-0.1	-7
O=C1C2C3c4ccccc4C(c4ccccc43)C2C(=O)N1c1cccnc1 (centres undefined)	7	1	-4%	3.4	7
CN(c1cccc(NC(=O)c2ccc(Cl)c(S(=O)(=O)N3CCOCC3)c2)c1)S(C)(=O)=O	-2	x	x	0.5	x
COc1ccc(N(CCC(=O)Nc2ccccc2F)S(=O)(=O)c2ccc(C)cc2C)cc1	-19	x	x	7.2	x
CCN(CC)C(=O)c1sc(NC(=S)N2CCN(C(=O)C3CCCO3)CC2)c(C(=O)OC)c1C (centres undefined)	-5	x	x	-3.0	x
CC(=O)CSc1ncnc2c1oc1ccccc12	-15	-8	16%	-0.1	-18
CCOC(=O)C1CCN(C(=O)C2CCN(S(=O)(=O)N3CCCC3)CC2)CC1	7	5	-5%	0.0	-21
CCN(CC)c1nc2nonc2nc1N(CC)CC	1	10	-11%	4.4	-29
CC(=O)NC1(C(Cl)(Cl)Cl)Oc2ccccc2O1	-9	-2	-4%	-1.5	-39
CCOC(=O)C(NC(=O)Nc1ccc(Cl)cn1)(Oc1ccccc1)C(F)(F)F (centres undefined)	-2	14	0%	0.6	-18
O=S(=O)(c1cccs1)N1CN(Cc2cccs2)c2nc3ccccc3nc21	0	5	6%	-1.4	-9
CCCc1nnc(NC(=O)Cn2c(=O)oc3cc(Br)ccc32)s1	15	3	-2%	x	-15
CCC1(C)OC(=O)NN(c2ccc(C)cc2)C1(C)O (centres undefined)	90	-1	u	-2.6	-18
NC(=O)CSc1nnc(COc2ccccc2)n1N	2	x	-6%	-3.5	x
Cc1ccc(S(=O)(=O)Nc2ccc(Cl)cn2)cc1	3	x	x	-1.8	x
Nc1cccc(/C=C/c2ccncc2)c1	57	x	70%	-0.3	x
CCc1cccc(NC(=O)CC2Oc3ccccc3NC2=O)c1 (centres undefined)	4	x	x	-0.8	x
CSCCC(NC(=O)c1cc(C(C)(C)C)oc1C)C(=O)O (centres undefined)	3	-1	-6%	1.0	-23
COc1ccc(-n2ccnc2SCC(=O)Nc2cc(C)on2)cc1	1	x	x	-1.7	x
CCOc1ccc(NC2OC(CO)C(O)C(O)C2O)c([N+](=O)[O-])c1 (centres undefined)	0	5	8%	0.6	x
Cc1c(C(=O)N(C)C)sc(NC(=O)c2cccc([N+](=O)[O-])c2)c1C#N	-12	-3	5%	0.5	-17
CCN(CC)CCN=Cc1c(O)n(Cc2ccccc2)c(=O)[nH]c1=O	1&-3	7	-7%&-1%	-4.2&0.3	-20
CN(C)S(=O)(=O)c1cccc(NC(=O)CO/N=C(\N)c2ccccc2)c1	-15	x	x	-1.4	x
CCN(CC)S(=O)(=O)c1ccc2oc(SCC(=O)Nc3cc(C)on3)nc2c1	96	x	x	-2.0	x
CCOC(=O)c1c(C)nc2sc3c(=O)n(-c4ccc(C(C)=O)cc4)nnc3c2c1-c1ccc(OC)cc1	3	-2	4%	2.1	-32
O=C(O)c1ccc(CS(=O)(=O)Cc2ccccc2F)o1	1	6	-19%	-1.3	-28
Cc1c(O[C@@H]2O[C@H](CO)[C@@H](O)[C@H](O)[C@H]2O)ccc2c1oc(=O)c1ccccc12	24	x	x	0.4	x
CN(Cc1ccccc1)Cc1nc2c(c(=O)n(C)c(=O)n2C)n1Cc1ccc(Cl)cc1	-3	-13	-2%	-0.6	-31
Nc1[nH]c(=O)[nH]c(=O)c1N=Nc1cccc(Cl)c1	6	-7	10%	-3.4	x
O=C(Cc1ccc(Cl)cc1)N/N=C/c1cccc(O)c1	4	x	x	0.3	x
O=C(O)c1ccc(NC(=S)NC(=O)C(c2ccccc2)c2ccccc2)cc1	-27	x	x	1.3	x
COc1ccc(OC)c(NC(=O)c2cc3n(n2)C(C(F)(F)F)CC(c2ccc4c(c2)OCO4)N3)c1 (centres undefined)	96	x	u	0.9	-41
O=C(CN1CCN(c2ccc(F)cc2)CC1)c1cccs1	1	-2	-1%	-2.3	x
Cc1cc(C(=O)CN2C(=O)NC(CC(C)C)C2=O)c(C)n1-c1ccccc1F (centres undefined)	3	6	-6%	1.5	x
O=C(O)/C=C/C(=O)Nc1ccccc1C(=O)Nc1ccccc1	-1	4	-10%	1.1	-21
O=C(Nc1ccc(N2CCOCC2)cc1)C1CCCN(S(=O)(=O)c2ccccc2)C1 (centres undefined)	-10	1	-2%	-1.5	-36
Cc1ccc2c(N)c(C#N)sc2n1	5	7	-8%	-4.0	-26
Cc1oc(-c2ccc(Cl)cc2)nc1CS(=O)CC(=O)NCCCN1CC(C)CC(C)C1 (centres undefined)	8	x	x	-2.2	x
CC(NC(=O)c1cc(-c2ccccn2)nc2ccc(Cl)cc12)C1CCCO1 (centres undefined)	15	x	x	3.3	x
CC(=O)N(C)c1ccc(NC(=O)c2cnn(C)c2)cc1	1	-7	-2%	0.7	-14

Next part:
SMILES	Mtb bLac sens	Arbovirus anti	Mtb H37Rv	RecA intein inh	YopH PTP inh	others
Cc1cc(=O)oc2ccc(OC(C)C(=O)O)cc12 (centres undefined)	-1	-2	0%	0.3	-18
Cc1nonc1NC(=O)CSc1ccccn1	-1	x	x	-1.1	x
COc1ccc(C(=O)N2CCOC2CNC(=O)C(=O)NCc2ccc(F)cc2)cc1 (centres undefined)	-3	x	x	0.7	x
O=C(NC1CCCCCC1)C1CCN(S(=O)(=O)c2cnc[nH]2)CC1	-5	4	5%	-0.7	x
COc1nc(N=C(N)N)nc2c(C)cccc12	3	9	x	-1.6	-36
CC(OC(=O)c1ccco1)C(=O)NC1CCCCC1 (centres undefined)	-13	10	-3%	x	-43
N=c1c(S(=O)(=O)c2ccc(Cl)cc2)cc2c(=O)n3ccccc3nc2n1CC1CCCO1 (centres undefined)	2	x	x	-115	x
N#Cc1ccc(Oc2cccc3cccnc23)c([N+](=O)[O-])c1	28	x	x	-0.6	x
OCCN1CCN(C(=S)Nc2ccc(SC(F)F)cc2)CC1	7	-4	-4%	-2.2	x
CCc1cc2c(N[C@@H](Cc3ccccc3)C(=O)O)ncnc2s1	-2	x	x	-1.8	x
CCn1nnnc1SCC(=O)c1ccc(C)cc1C	x	2	-9%	-0.5	-16
NC(=O)C1CC(=O)N(c2ccc(OCc3ccc([N+](=O)[O-])cc3)cc2)C1 (centres undefined)	1	x	x	1.4	x
Cc1nnc2sc(SCC(=O)Nc3ccc(Br)cc3)nn2c1=O	-5	14	-10%	-3.9	x
COc1cccc(Oc2ccc(C(F)(F)F)cc2NC(=O)c2cccc(F)c2)c1	4	8	9%	3.2	-26
O=C(O)c1ccc(N=Cc2c(O)ccc3oc4c(c23)CCCC4)cc1	37	x	-2%	-2.9	x
Cn1ncc(Cl)c1C(=O)NCc1ccco1	-17	2	4%	-0.9	x
CCOC(=O)c1cc(-c2cccc([N+](=O)[O-])c2)n[nH]1	-12	-1	-4%	-1.1	x
CCN(CC)C(=O)c1sc(NC(=O)c2ccc(C)c([N+](=O)[O-])c2)c(C#N)c1C	54	10	3%	-0.8	-39
CC(=O)SCC(C)C(=O)NCc1ccccc1 (centres undefined)	9	5	-11%	0.9	-17
O=[N+]([O-])c1cccc(/C=N\N=C2c3ccccc3-c3ccccc32)c1O	9	40*	0%	1.7	-17
O=C(NNC(=O)C12CC3CC(CC(C3)C1)C2)c1ccncc1	-10	x	x	2.4	x
Cc1[nH]c2ccccc2c1C(=O)C(=O)N1CCN(c2cccc(Cl)c2)CC1	4	x	x	8.6	x
CCOC(=O)C1(Cc2ccccc2)CCN(C2Cc3ccccc3C2)CC1	3	-2	3%	x	x
Cc1noc(C)c1S(=O)(=O)N1CCC(C(=O)Nc2ccc(Br)cc2)CC1	8	x	x	-1.5	x
COc1ccc(OC)c(C2/C(=C(/O)c3cnn(-c4ccccc4)c3C)C(=O)C(=O)N2CCN(C)C)c1 (centres undefined)	-3	x	x	-1.7	x
N=c1c(S(=O)(=O)c2ccc(Cl)cc2)cc2c(=O)n3ccccc3nc2n1C1CCCC1	-4	x	x	-22	x
C=CCn1c(SCC(=O)N2CCN(c3ccc(F)cc3)CC2)nnc1-c1cccs1	-3	0	-7%	3.3	-28
C=CCNS(=O)(=O)c1cccc(C(C)=O)c1	-11	3	3%	-1.5	-30
CCCCCc1cc(=O)oc2c(C(CCN3CCN(c4ccccc4)CC3)c3ccc(N(C)C)cc3)c(OC)cc(OC)c12 (centres undefined)	5	x	13%	-1.9	x

Bioassay records: PubChem, several laboratories
